Screening data deposited in PubChem BioAssay by The Scripps Research Institute Molecular Screening Center.
CTSL1 counter – Fasciola hepatica cathepsin L1 inhibitors, primary screen, counter-screen for PFM18AAP inhibitor project, biochemical, QFRET, fluorogenic peptide substrate. hit rate 0.49% among 300,000. AID 1906, 2009. recombinant F. hepatica cathepsin L1, Z-Leu-Arg-MCA fluorescence. inhibition, % at 5.96 µM;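 active = inhibition above the mean of all tested compounds plus 3 SD, set per screening campaign, cut at about 17% in these data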;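 also: 0% = plate median of test compound wells and 100% = 1 µM Z-Phe-Ala-diazomethylketone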
PP1 inh – PP1-alpha phosphatase inhibitors, primary screen, counter-screen for PP5 inhibitor project, biochemical, fluorescence, OMFP substrate, single point; hit rate 0.9% among 320,000; Serine/threonine-protein phosphatase PP1-alpha catalytic subunit (Homo sapiens), P62136; purified PP1alpha; inhibition, % at 6.7 µM;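 active = inhibition above the mean inhibition of all tested compounds plus 3 SD, computed separately for each screening campaign, cut at about 15% in these data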
Target sequence (P62136 whole entry, looked up): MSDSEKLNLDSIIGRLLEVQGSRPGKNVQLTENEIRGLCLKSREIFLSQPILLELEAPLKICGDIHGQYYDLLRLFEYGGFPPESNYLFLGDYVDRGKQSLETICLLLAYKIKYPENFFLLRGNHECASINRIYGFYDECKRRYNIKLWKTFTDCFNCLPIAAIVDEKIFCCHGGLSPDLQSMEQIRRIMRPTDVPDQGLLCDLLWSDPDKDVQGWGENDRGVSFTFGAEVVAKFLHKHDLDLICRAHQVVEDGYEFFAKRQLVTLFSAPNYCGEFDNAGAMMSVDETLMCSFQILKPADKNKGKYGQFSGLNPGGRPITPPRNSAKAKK
PAFAH2 inh – PAFAH2 enzyme inhibitors, primary screen, biochemical, fluorescence polarization, human; Platelet-activating factor acetylhydrolase 2, cytoplasmic (Homo sapiens), Q99487; hit rate 0.99% among 340,000; recombinant PAFAH2, FP-rhodamine activity probe; inhibition, % at 3.39 µM; AID 492956, 2010;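 active = inhibition above the mean over all tested compounds plus 3 SD, cut at about 30% in these data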;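 also: inhibitors block probe labeling of enzyme so polarization drops; 0% = enzyme with DMSO and 100% = wells lacking PAFAH2 protein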
HCV core dimer – inhibitors of HCV core protein dimerization, primary screen, biochemical, TR-FRET, high-throughput. TR-FRET GST/Flag-core106 dimerization, 1536-well. inhibition, % at 5 µM. hit rate 0.33% among 300,000. AID 1899, 2009;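 active = inhibition above the mean of all tested compounds plus 3 SD, set per screening campaign, cut at about 45% in these data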
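Assay system: tagged HCV core106 pair (GST and Flag); medium: KF-containing HEPES buffer, pH 7.45, DTT, CHAPS, BSA; also added: Eu donor and XL665 acceptor anti-tag antibodies; dosing: 5 µM single dose; timing: compound-protein-antibody incubation 4 h at 22.5 °C; signal: TR-FRET 671 and 617 nm emission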
TPT1 inh – Candida albicans TPT1 enzyme inhibitors, primary screen, biochemical, fluorescence polarization; recombinant caTPT1, FP RNA substrate dephosphorylation; inhibition, % at 5 µM; hit rate 0.81% among 300,000; tRNA 2'-phosphotransferase TPT1 (Candida albicans SC5314); AID 1962, 2009;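 active = inhibition above the mean of all tested compounds plus 3 SD, set per screening campaign, cut at about 24% in these data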;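 also: plate controls were DMSO alone for no effect and ferristatin control at 100 nM for full effect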
PP5 primary – PP5 phosphatase inhibitors, primary screen, biochemical, fluorescence; Serine/threonine-protein phosphatase 5 (Homo sapiens), P53041; purified PP5c, OMFP substrate fluorescence; inhibition, % at 6.7 µM; hit rate 0.18% among 320,000; AID 1987, 2009;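 active = inhibition above the campaign's mean inhibition across all tested compounds plus 3 SD, cut at about 9.5% in these data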;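 also: 0% = DMSO only and 100% = 100 µM cantharidin control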
AHR act – AHR activators, primary screen, cell-based, luminescence, luciferase reporter, human. Aryl hydrocarbon receptor (Homo sapiens), P35869. AHR-responsive luciferase reporter cells. activation, % at 5 µM. hit rate 2.5% among 320,000. AID 2796, 2010; in the data active = activation above about 47%;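 also: 0% = vehicle wells and 100% = reference agonist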
proCasp7 act – procaspase-7 activators, primary screen, counter-screen for procaspase-3 activator project, biochemical, absorbance, HTS, human | activation, % at 8.5 µM | hit rate 0.093% among 330,000 | AID 463210, 2010 | recombinant procaspase-7, Ac-DEVD-pNA absorbance 405 nm; D23A/D198A/D206A triple mutant, cannot self-cleave; scale: DMSO 0, 5 µM enzyme 100 | Caspase-7 (Homo sapiens), P55210;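 active = percent activation above the screen-wide mean plus 3 SD, cut at about 25% in these data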
Target sequence (P55210 whole entry D23A/D198A/D206A): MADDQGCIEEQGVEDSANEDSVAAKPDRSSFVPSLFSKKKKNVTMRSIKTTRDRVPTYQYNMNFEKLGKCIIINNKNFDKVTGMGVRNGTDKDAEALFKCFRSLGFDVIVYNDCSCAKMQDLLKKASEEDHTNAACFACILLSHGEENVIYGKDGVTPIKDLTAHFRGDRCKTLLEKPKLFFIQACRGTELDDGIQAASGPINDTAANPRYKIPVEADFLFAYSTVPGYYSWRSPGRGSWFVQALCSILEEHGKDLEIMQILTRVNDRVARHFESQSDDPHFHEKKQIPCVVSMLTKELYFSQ
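System: Uncleavable procaspase-7 mutant enzyme; Amount: 2 µM procaspase-7 mutant as dispensed; Schedule: 1 h compound preincubation, 2 h substrate cleavage, 25 °C; Measured by: 405 nm absorbance of p-nitroaniline; Evaluation: percent activation from buffer-corrected 0–120 min absorbance change; Control set: low DMSO alone, high DMSO plus 5 µM PC-7.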
An asterisk follows results filed as active; · = not tested or not shown. Only part of the results is shown; the hit share may differ from the screen's.

entry | Structure | CTSL1 counter | PP1 inh | PAFAH2 inh | HCV core dimer
1 | COC(=O)c1sccc1NC(=O)Nc1cccc(F)c1 | 7 | 0 | -1 | -1
2 | COC(=O)c1ccc(NC(=O)c2ccc3c(c2)OCO3)cc1 | 0 | 0 | -1 | -3
3 | Cn1c(SCC(=O)c2ccccc2)ncc(C(=O)Nc2ccc(F)cc2)c1=O | 6 | -1 | 6 | -2
4 | Cc1nn(-c2nc3ccccc3[nH]2)c(N)c1-c1ccccc1 | 5 | -1 | 6 | 0
5 | O=C(Nc1ccccc1C(=O)O)c1ccc(Br)o1 | 4 | -1 | 3 | 0
6 | c1ccc2nc(-c3ccc4c(c3)OCO4)ccc2c1 | 0 | 0 | 5 | 0
7 | Cc1ccc(NC(=O)c2cnc(SCC(=O)NCC3CCCO3)n(C)c2=O)cc1 (configuration not stated) | 5 | -3 | 0 | 0
8 | CCc1ccc(NC(=O)Nc2ccsc2C(=O)OC)cc1 | 3 | -1 | 3 | 16
9 | COc1ccccc1-c1noc(-c2ccco2)n1 | -4 | 1 | 1 | -7
10 | Cn1cccc1C(=O)OCC(=O)Nc1sccc1C#N | · | · | 8 | ·
11 | Cc1cccc(N/C=C/c2onc(C)c2[N+](=O)[O-])c1 | 5 | 1 | 1 | -11
12 | O=C(Nc1ccc(F)cc1)Nc1ccccc1F | 1 | -1 | -8 | -6
13 | CCOc1ccc(NC(=O)c2ccc(F)cc2F)cc1 | -1 | 7 | 5 | -1
14 | O=C(O)c1ccc(C(=O)Nc2ccc(F)cc2)cc1 | 0 | -4 | 4 | 6
15 | COc1cccc(-c2noc(-c3ccoc3C)n2)c1 | -2 | 3 | 5 | -2

entry | TPT1 inh | PP5 primary | AHR act | proCasp7 act
1 | -2 | 3.4 | 34 | -1
2 | -1 | -0.7 | 1 | 3
3 | 6 | 0.8 | 98* | -2
4 | -1 | 1.7 | 7 | 9
5 | 1 | 1.3 | 2 | -8
6 | 1 | 1.5 | 65* | -9
7 | -3 | -1.4 | 16 | 6
8 | 1 | 3.6 | 19 | 6
9 | 4 | 1.4 | 90* | 14
10 | · | · | 13 | 10
11 | 62* | 1.1 | 17 | -5
12 | -2 | 1.9 | 5 | 8
13 | -2 | 0.5 | -8 | 3
14 | -5 | 1.6 | 2 | 1
15 | 0 | 0.0 | 69* | 7

Other results follow.
entry | Structure | CTSL1 counter | PP1 inh | PAFAH2 inh | HCV core dimer
16 | Cc1cnc(C(=O)Nc2ccc(F)c(F)c2)cn1 | -3 | 6 | -4 | -1
17 | COc1ccccc1-c1nc(-c2ccncc2)no1 | -1 | -2 | 2 | -1
18 | Cc1ccc(-c2nnc(SCC(=O)NC(=O)Nc3ccc(C)cc3C)n2N)cc1 | 3 | -3 | -1 | 12
19 | Cc1nc2nc(-c3ccccc3)nn2c(C)c1Cl | 3 | -3 | -4 | -2
20 | Brc1ccc(-c2cn3ccccc3n2)s1 | 3 | 3 | 9 | -5
21 | COc1cccc(NC(=O)c2cnc(SCC(=O)NCc3ccc4c(c3)OCO4)n(C)c2=O)c1 | 3 | -5 | 4 | -1
22 | Cc1ccnc(NC(=O)c2ccc3c(c2)C(=O)N(CC(C)C)C3=O)c1 | 1 | 0 | -2 | 9
23 | Cc1csc(NC(=O)c2ccccc2)n1 | 2 | -1 | -3 | -3
24 | O=C(Nc1cccc(Br)c1)c1ccn[nH]1 | -2 | 2 | -1 | -3
25 | COC(=O)c1sccc1NC(=O)Nc1cccc(OC)c1 | 0 | 0 | 1 | 3
26 | O=C(COc1cccc2cccnc12)N1CCc2ccccc21 | -1 | 1 | -1 | -11
27 | O=C(/C=C/c1cccs1)Nc1nccs1 | 5 | 1 | 5 | -9
28 | Cc1cccc(C(=O)OCC(=O)c2ccc3c(c2)NC(=O)CO3)c1 | · | · | 0 | ·
29 | COC(=O)c1sccc1NC(=O)Nc1cccc([N+](=O)[O-])c1 | 0 | -1 | -5 | 5
30 | Fc1ccc2cnc(C3=CCCCC3)cc2c1 | · | · | -7 | ·

entry | TPT1 inh | PP5 primary | AHR act | proCasp7 act
16 | 0 | -1.2 | -1 | 3
17 | 2 | -0.3 | 80* | 16
18 | -1 | -0.5 | 16 | 1
19 | 2 | 0.5 | 55* | -8
20 | -7 | 2.8 | 37 | 2
21 | 5 | -0.6 | 4 | 8
22 | 0 | 2.8 | 39 | 9
23 | 0 | 1.1 | 3 | 10
24 | -5 | 2.6 | 4 | 3
25 | -2 | 2.3 | 11 | 10
26 | 2 | 2.6 | 12 | 5
27 | -1 | -1.3 | 21 | 6
28 | · | · | -1 | 1
29 | -1 | 3.3 | -1 | -6
30 | · | · | 7 | -6

An excerpt of these results, with two lines to a compound.
Values run as follows: CTSL1 counter | PP1 inh | PAFAH2 inh | HCV core dimer | TPT1 inh | PP5 primary | AHR act | proCasp7 act
(20) Brc1ccc(-c2cn3ccccc3n2)s1
→ 3 | 3 | 9 | -5 | -7 | 2.8 | 37 | 2
(21) COc1cccc(NC(=O)c2cnc(SCC(=O)NCc3ccc4c(c3)OCO4)n(C)c2=O)c1
→ 3 | -5 | 4 | -1 | 5 | -0.6 | 4 | 8
(22) Cc1ccnc(NC(=O)c2ccc3c(c2)C(=O)N(CC(C)C)C3=O)c1
→ 1 | 0 | -2 | 9 | 0 | 2.8 | 39 | 9
(23) Cc1csc(NC(=O)c2ccccc2)n1
→ 2 | -1 | -3 | -3 | 0 | 1.1 | 3 | 10
(24) O=C(Nc1cccc(Br)c1)c1ccn[nH]1
→ -2 | 2 | -1 | -3 | -5 | 2.6 | 4 | 3
(25) COC(=O)c1sccc1NC(=O)Nc1cccc(OC)c1
→ 0 | 0 | 1 | 3 | -2 | 2.3 | 11 | 10
(26) O=C(COc1cccc2cccnc12)N1CCc2ccccc21
→ -1 | 1 | -1 | -11 | 2 | 2.6 | 12 | 5
(27) O=C(/C=C/c1cccs1)Nc1nccs1
→ 5 | 1 | 5 | -9 | -1 | -1.3 | 21 | 6
(28) Cc1cccc(C(=O)OCC(=O)c2ccc3c(c2)NC(=O)CO3)c1
→ · | · | 0 | · | · | · | -1 | 1
(29) COC(=O)c1sccc1NC(=O)Nc1cccc([N+](=O)[O-])c1
→ 0 | -1 | -5 | 5 | -1 | 3.3 | -1 | -6
(30) Fc1ccc2cnc(C3=CCCCC3)cc2c1
→ · | · | -7 | · | · | · | 7 | -6

(further entries)
entry | Structure | CTSL1 counter | PP1 inh | PAFAH2 inh | HCV core dimer
31 | Cc1ccc([N+](=O)[O-])cc1S(=O)(=O)Nc1cccc(-c2ccc(N3CCOCC3)nn2)c1 | -1 | -3 | 18 | 2
32 | COCCN1C=C2C(=O)C(C)(OC(=O)CCC(=O)OC)C(=O)C=C2C=C1C1CC1 (configuration not stated) | 12 | 7 | 7 | -13
33 | CC(C)c1ccc(NC(=O)c2ccc(Br)o2)cc1 | -3 | 0 | 6 | 8
34 | COc1cccc(-c2noc(-c3ccc(Cl)nc3)n2)c1 | -1 | -3 | -10 | 0
35 | O=C(Oc1cccc(/C=N/NC(=O)c2ccccn2)c1)c1ccc([N+](=O)[O-])cc1 | 2 | -1 | -5 | 9
36 | CSc1ncccc1C(=O)OCc1ccccc1Cl | -3 | -6 | -1 | 2
37 | CC(C)NS(=O)(=O)c1ccc(OCC(=O)Nc2ccccc2F)cc1 | 0 | -8 | 3 | -2
38 | CCc1c(O)nc(SCC(=O)Nc2ccccc2)n(-c2ccccc2)c1=O | -5 | -7 | 2 | 4
39 | COC(=O)c1ccc(C(=O)Nc2ccc(F)cc2)cc1 | 1 | -1 | -4 | -5
40 | Cc1ccc(-c2cc3ncc(C#N)c(N)n3n2)cc1 | -1 | -4 | -10 | -7
41 | O=C(Nc1ccc(C(=O)Oc2ccccc2)c(O)c1)c1ccccc1 | -2 | -1 | -6 | 4
42 | COc1nccnc1NS(=O)(=O)c1ccc(NC(=S)NC(=O)c2cccc(F)c2)cc1 | 7 | 1 | 3 | 3
43 | Cn1c(/C(C#N)=C/c2ccc(O)cc2)nc2ccccc21 | 3 | 0 | -4 | -3
44 | COc1ccc(-c2coc3cc(OC(C)=O)c(OC)cc3c2=O)cc1 | · | · | 12 | ·
45 | CCCCCn1nc(C)c(/C=N/NC(=O)c2ccoc2C)c1C | -3 | -2 | -4 | -5

entry | TPT1 inh | PP5 primary | AHR act | proCasp7 act
31 | -1 | 2.0 | -2 | 12
32 | -7 | 17* | -2 | -9
33 | -2 | 1.4 | 99* | 0
34 | -4 | 1.0 | 54* | 11
35 | -2 | 0.1 | -1 | -1
36 | -1 | -0.3 | 0 | -3
37 | -1 | 0.4 | -2 | 5
38 | 5 | -0.4 | 1 | -2
39 | -5 | -0.3 | 2 | 15
40 | -1 | 1.2 | 13 | -5
41 | -3 | 4.5 | -1 | -4
42 | 0 | 1.1 | 1 | -8
43 | 6 | 1.6 | 2 | -2
44 | · | · | -5 | 5
45 | 0 | 1.7 | 13 | 0

Next part:
entry | Structure | CTSL1 counter | PP1 inh | PAFAH2 inh | HCV core dimer
46 | COc1cccc(C(=O)Nc2ccc(NC(=O)c3ccco3)c(Cl)c2)c1 | -2 | 4 | 0 | 1
47 | O=C(O)c1cccc(NC(=O)c2ccc3c(c2)C(=O)N(c2ccccc2)C3=O)c1 | 4 | -6 | -5 | 11
48 | Cc1ccc(-c2cc(N)n(-c3ccccc3)n2)cc1 | -1 | 5 | 4 | 1
49 | COc1ccccc1NC(=O)Nc1ccc2c(c1)CCC2 | 2 | 3 | -6 | 0
50 | CSc1nc(N)n2nc(-c3ccccc3)cc2n1 | -2 | -2 | · | -1
51 | COc1ccc(NC(=O)Nc2ccccc2F)cc1 | 1 | -4 | 2 | -8
52 | Cn1c(CSc2nc3ccccc3s2)nc2ccccc21 | -3 | 2 | 4 | 1
53 | O=C(Nc1nc(-c2cccs2)cs1)C1=COCCO1 | -1 | -1 | -1 | 0
54 | Cc1ccc(-c2cc3nc(-c4ccccc4)cc(N)n3n2)cc1 | -1 | -2 | 7 | 4
55 | Cc1ccc(C(=O)OCC(=O)c2ccccc2)cc1 | -1 | 1 | 37* | 4
56 | Cc1ccc(C(=O)NN=CC(=O)c2ccccc2)c(C)c1 | · | · | -2 | ·
57 | CCOC(=O)c1ccc(NC(=O)Nc2ccc(F)cc2)cc1 | 3 | -1 | -8 | 1

entry | TPT1 inh | PP5 primary | AHR act | proCasp7 act
46 | 0 | 3.8 | 13 | 5
47 | 4 | -0.8 | 0 | -2
48 | 1 | 1.0 | 4 | 5
49 | -2 | 3.5 | 15 | 4
50 | 2 | 3.0 | 24 | 2
51 | 1 | -0.9 | -2 | 4
52 | 3 | 1.4 | 7 | 8
53 | 2 | 0.7 | 12 | 4
54 | -1 | 1.0 | 19 | -10
55 | 3 | 4.7 | -1 | 10
56 | · | · | 4 | 2
57 | -1 | 2.5 | -1 | 3
